HPGD inh = blocks human HPGD enzyme activity | 4.3% of 150,000 active | purified HPGD, NADH fluorescence kinetic, PGE2 substrate | Potency, µM, for inactives: top-dose activity change, negative = inhibition, most hits filed as inhibitors; active = well fitted inhibition curve with a large enough effect (not every such curve was filed as active); inconclusive = small, poorly fitted or top-dose-only effect, or another doubt; inactive = no such curve, though single readings can be large or run the other way;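 note: top concentration of the series not given in the record; plate controls included wells without enzyme; inactives centre near -10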
Target sequence (P15428 whole entry, looked up): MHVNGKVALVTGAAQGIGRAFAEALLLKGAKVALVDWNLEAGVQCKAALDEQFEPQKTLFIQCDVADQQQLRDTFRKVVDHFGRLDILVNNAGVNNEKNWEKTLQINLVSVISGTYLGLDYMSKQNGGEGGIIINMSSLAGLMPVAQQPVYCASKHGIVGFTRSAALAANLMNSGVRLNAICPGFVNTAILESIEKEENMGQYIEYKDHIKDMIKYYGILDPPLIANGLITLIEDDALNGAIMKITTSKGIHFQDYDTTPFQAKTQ
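20 nM HPGD preincubated 15 min at room temperature with compound in 50 mM Tris-HCl pH 8, 0.01% Tween 20. Started with 1 mM NAD+ and 30 uM prostaglandin E2; NADH fluorescence (360/450 nm) read 5 times over 30-s intervals, last minus first.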
* hit, by the source's call; ? = inconclusive; & = joins results of further samples. % is set by controls: 0 for no effect and ±100 for the full control effect; potency is the fitted concentration of half-maximal effect. Only part of the results is shown; rates above refer to the full screens.

structure	HPGD inh
COc1ccc(C2C(C(C)=O)=C(C)Nc3ncnn32)cc1OC (stereo not drawn)	-9.5%
Cc1ccc2nc(SCc3cn4cccnc4n3)[nH]c2c1	-4.9%
Cn1c(=O)[nH]c(=O)c2c1nc(N1CCN(c3ccccc3)CC1)n2CCSc1ncccn1	8.2%
O=C(NNC(=S)Nc1cccc2ccccc12)c1cccc(Br)c1	-19.8%
O=C(Nc1ccc(O)cc1)c1ccc2c(c1)C(=O)N(Cc1ccco1)C2=O	-8.9%
CC(=O)OC[C@H]1O[C@@H](O/N=C/C[C@@H]2C=C[C@H](OC(C)=O)[C@@H](COC(C)=O)O2)[C@H](OC(C)=O)[C@@H](OC(C)=O)[C@@H]1OC(C)=O	-13.2%
COc1ccccc1OCc1nc2ccccc2[nH]1	-4.6%
O=C(c1cccs1)N1CCC(N2CCN(c3ccccc3)CC2)CC1	-8.2%
CC(=O)Nc1ccc(/C=N/NC(=O)c2cc3cc(C)ccc3nc2C)cc1	?
c1ccc(-c2onc3c2CCCC3)cc1	-25.5%
CC1(C)SC2c3ccccc3C(=O)N2[C@@H]1C(=O)NCc1ccco1 (stereo partly drawn)	-0.9%
COC(=O)c1ccccc1NC(=O)C1CCCCC1C(=O)O (stereo not drawn)	-23.3%
N#CC(C(=O)NCc1ccco1)c1nc2ccccc2nc1N1CCOCC1 (stereo not drawn)	-10.2%
CCC1CCCCN1CCCNC(=O)COc1cc(=O)n(C)c2ccccc12 (stereo not drawn)	-3.2%
CCC(=O)OCCn1c(=O)c2cc3c(=O)n(CCOC(=O)CC)c(=O)c3cc2c1=O	-3.5%
CN1CCN(c2ccccc2NC(=O)c2cc(Br)ccc2Cl)CC1	-0.6%
CCCCn1c(=O)c(CCC(=O)OCC(=O)Nc2ccc(C)c(Cl)c2)nc2ccccc21	-17.6%
CCCCC(CC)C1OCC(CN2CCCC2)O1 (stereo not drawn)	-11.0%
CC(C)C[C@@H](CC(=O)N[C@H](CC(=O)N[C@@H]1CCCC[C@H]1C(=O)N[C@H](CC(=O)N[C@@H](CCC(=O)O)CC(=O)O)Cc1ccccc1)C(C)C)NC(=O)[C@@H]1CNCC[C@H]1N	-2.7%
CCc1cccc(NC(=O)CCC(=O)O)c1	6.1%
Cn1c(=O)c2c(nc(CN3CCC(C(N)=O)CC3)n2CCc2ccccc2)n(C)c1=O	-4.7%
CC(C)c1ccc(Nc2ncccc2C#N)cc1	25.1µM*
CCC1=C(OC(=O)N(CC)CC)N2C(=O)OC(=NCCOC)[C@]2(C)[C@H]2C1=CC[C@H]1C(=O)N(C)C(=O)[C@H]12	-9.1%
Cc1ccc(C(=O)N/N=C/c2ccc3c(c2)OCO3)o1	-17.8%
CCCOc1cc(C)c(S(=O)(=O)n2nnc3ccccc32)cc1C	-2.7%
CCc1ccc(N=CC2=C(O)CC(c3ccco3)CC2=O)cc1 (stereo not drawn)	-16.6%
O=C1c2ccncc2C(=O)N1CO	-5.5%
Cc1cc(NC(CC(C)C)C(=O)O)nc(Cc2ccccc2)n1 (stereo not drawn)	-9.2%
Cc1ccc(C)c(N2CCN(C(c3ccc(N(C)C)cc3)c3nnnn3C(C)(C)C)CC2)c1 (stereo not drawn)	-19.6%
O=C(O)CCCC(=O)Nc1cccc(C(F)(F)F)c1	-7.1%
O=P1(O)C=C(c2ccccc2)NC(c2ccccc2)=C1	1.9%
CCOC(=O)CSc1nc2ccccc2n1C(=O)OCC	-4.7%
CSc1nc2ccccc2n1CC(=O)Nc1ccccc1	-12.0%
Cc1ccc(-c2noc(CNCCCN(C)C)n2)cc1	-2.7%
CCOP(=O)(OCC)C(Nc1cccc(C)c1)c1ccc(F)cc1 (stereo not drawn)	-7.6%
CCC1Oc2ccccc2N(CC(=O)NCCCN2CCC(C)CC2)C1=O (stereo not drawn)	3.5%
CCOC(=O)N1CCN(CCC(=O)Nc2ccc(C)cc2)CC1	-9.6%
O=C(NC1(C(F)(F)F)NC(=O)N(c2ccc(F)cc2)C1=O)c1ccncc1 (stereo not drawn)	-8.6%
O=C(CN(Cc1ccccc1)C(=O)c1ccc2c(c1)OCCO2)NCc1ccc2c(c1)OCO2	-6.8%
COC(=O)c1sccc1NC(=O)c1ccc(OC)c(OC)c1	?
CCc1ccc(OCc2nnc(SCC(=O)N3CCN(c4ccccc4)CC3)o2)cc1	-7.7%
N/C(=N\OC(=O)c1cccs1)c1ccccc1	31.6µM*
O=C(Oc1ccccc1)N1CCC2(CC1)CN(c1ccccc1)C2	-2.3%
COC(=O)c1ccc2c(c1)C(C)(C)C(/C=C/c1ccc(OC)c(OC)c1OC)=[N+]2C	-28.0%
COC(=O)C1CC1C(NC(=O)[C@H]1CCCCN1)c1ccccc1 (stereo partly drawn)	-0.4%
CCOC(=O)c1oc2c(c1C)C(=O)CCC2	-10.2%
CCCCCCNC(=O)CC(c1ccccc1)c1cc(Br)ccc1O (stereo not drawn)	8.91µM*
COc1ccc(C(=O)/C=C/Nc2ccc(C)cn2)cc1OC	-23.1%
CN(C)CCCN1c2ccccc2Sc2ccc3ccccc3c21	-7.4%
O=C(CCCCCn1c(=O)[nH]c2ccccc2c1=O)N1CCN(Cc2ccc3c(c2)OCO3)CC1	-5.7%
O=C(O)c1ccccc1S	-7.3%
CCOC(=O)N1CCC(NC(=O)CCC(=O)N2CC(C)Oc3ccccc32)CC1 (stereo not drawn)	-6.5%
COc1ccccc1C(=O)Nn1c(C2CCC2)nc2ccccc2c1=O	-6.3%
COCc1nnc(NS(=O)(=O)c2ccccc2)s1	-18.2%
O=C(Nc1cccc(-c2cnc3ccccc3n2)c1)c1ccco1	-23.2%
CC(C[N+](C)(C)C)OC(N)=O (stereo not drawn)	-9.7%&-4.2%&-11.4%
O=C(c1ccccc1CCc1ccccc1)N1CCN(c2ccccn2)CC1	?
COc1ccc(NC(=O)C2(c3ccc(NC(=O)c4ccc(OC(C)=O)cc4)cc3)CCCC2)cc1	?
C=C(C)COc1ccc(-c2[nH]ncc2Oc2ccccc2OCC)c(O)c1	17.8µM*
C#C[C@]1(OC(C)=O)CCC2C3CCC4=CC(=O)CCC4C3CC[C@]21C (stereo partly drawn)	-3.1%

Following part
structure	HPGD inh
CSc1ccc(C(=S)N2CCN(Cc3ccccc3)CC2)cc1	?
C#CCSc1nnc(-c2cc3c(C(F)(F)F)nn(C)c3s2)n1C	-8.8%
CCOc1cc(C(=O)NCc2ccncc2)cc(OCC)c1OCC	-2.7%
COCCCn1c(CCC(=O)O)ccc1-c1cccs1	?
Cc1cc2ncn(S(=O)(=O)c3ccc(S(=O)(=O)N4CCOCC4)cc3)c2cc1C	-11.8%
CC1CCCC(NC(=O)CCCn2c(=O)[nH]c3cc(Cl)ccc3c2=O)C1C (stereo not drawn)	-23.9%
O=C(Nc1ccc2c(c1)OCO2)OCc1ccccc1	-22.4%
O=C(CNC(=O)c1ccc2c(c1)OCCO2)N/N=C/c1ccc(O)cc1O	-26.7%
CC1=C(C(=O)N(C)Cc2ccccc2)C2(CCC(C)CC2)OC1=O (stereo not drawn)	-8.0%
Cc1ccc(-n2ncc3c2ncn2c(C)nnc32)cc1C	-19.0%
CC(=O)Nc1ccc(S(=O)(=O)N2CCN(C(=O)Cc3ccccc3)CC2)cc1	2.3%
O=C(c1ccccc1)N1CCN(C(=S)NCc2ccc3c(c2)OCO3)CC1	31.6µM*
O=C(NC1CCCc2ccccc21)c1ccc(=O)[nH]c1 (stereo not drawn)	-19.1%
O=S(=O)(NCc1cccnc1)c1ccc(Cl)c(Cl)c1Cl	-10.9%
N#CCCn1c(=O)c(-c2cc(F)cc(F)c2)nc2cnc(OCc3ccccc3)nc21	?
COc1ccc(-c2nc(-c3cccs3)c(-c3cccs3)[nH]2)cc1OC	?
Cc1ccc(S(=O)(=O)Cc2ccc(C(=O)NCc3ccc4c(c3)OCO4)o2)cc1	-13.4%
CCC(=O)NCCc1cc2ccc(C)cc2[nH]c1=O	?
C=C(c1ccc(OC)cc1)c1ccc(OC)cc1	-5.2%
Cc1ccc(-n2c(O)c(/C=N/NC(=O)C3COc4ccccc4O3)c3ccccc3c2=O)cc1 (stereo not drawn)	-23.2%
O=C(CSc1c2c(nc3ccc(Cl)cc13)CCCC2)NCc1ccco1	-6.7%
O=C(Nc1ccccc1)C1CCCN(S(=O)(=O)c2ccc(-n3cnnn3)cc2)C1 (stereo not drawn)	-8.9%
CCN(CC(=O)Nc1ccccc1C(=O)OC)S(=O)(=O)c1ccccc1	-19.2%
CC(C(=O)N1CCOCC1)N1C(=O)C2C3CC(C(Br)C3Br)C2C1=O (stereo not drawn)	4.3%
O=c1cc(O)nc(SCc2ccccc2)[nH]1	-5.8%
CCOC(=O)c1csc(NC(=O)c2cc(OC)c(OC)c(OC)c2)n1	?
O=C(Oc1cc(=O)n2ccccc2n1)c1ccccc1	?
COC(=O)N/N=C/c1ccccc1OCc1ccccc1	3.1%
Cc1cc2c(C)nc(N/N=C/c3ccc(F)cc3)nc2o1	?
CCOc1ccc(C(=O)/C=C/c2ccc(SC)cc2)cc1	-26.3%
Nc1ccc(Oc2ccc([N+](=O)[O-])cc2[N+](=O)[O-])cc1	-15.5%
Cc1ccc(NC2c3ncccc3C(=O)N2C2CCCCC2)cc1C (stereo not drawn)	-18.0%
CC(C)(C)NC(=O)/C(=C\c1ccco1)NC(=O)c1cccs1	-10.9%
CC(C)CNC(=O)c1cccc(NC(=O)Cc2ccc(Br)cc2)c1	-10.3%
COc1ccc(N2C(=O)CCC(C(C)=O)=C2C)cc1	-10.9%
CCOC(=O)c1ccc(N2CN(CC)CNC2=S)cc1	5.4%
Cc1ccc(-n2nnnc2CSc2nnc(-c3ccc(O)cc3)o2)cc1	-17.2%
COCCCNC(=S)Nc1ccc2c(c1)OCCO2	-18.8%
COc1ccc(-n2ccsc2=S)cc1	-18.0%
COC(=O)[C@H]1CC2(CC=C(C)C)C(=O)[C@@](CC=C(C)C)(C(=O)C(C(=O)c3ccccc3)=C2OC)C1(C)C (tested in a mixture with another compound)	-4.0%
CCOC(=O)CSCC(=O)Nc1ccc(S(=O)(=O)N2CCCCC2)cc1	-5.4%
COC(=O)c1ccc2c(=O)n(CCCN3CCCC3=O)c(=S)[nH]c2c1	?
O=C(CNc1cccc(C(F)(F)F)c1)N/N=C/c1cn(-c2ccccc2)nc1-c1ccccc1	?
CC(=O)Nc1ccc(N2CCCCC2)c(C(=O)Nc2cccc(C)c2)c1	-8.7%
COCCNC(=O)CSc1nc(-c2ccc(OC)c(OC)c2)cc(C(F)(F)F)n1	?
CCn1c2ccccc2c2cc(NC(=O)C(C)C)ccc21	-19.6%
COc1ccccc1OCCOc1ccccc1/C=N/n1cnnc1	-3.7%
CCN(CCCNC(=O)CCCCn1c(=O)[nH]c2ccccc2c1=O)c1ccccc1	-5.8%
Cc1ccc(Cl)cc1NC(=O)COC(=O)CC1CC2CCC1C2 (stereo not drawn)	-3.0%
CCNC(=O)CC1C(=O)N(CC)C(=S)N1NC(=O)c1ccc(Cl)cc1 (stereo not drawn)	-17.3%
Cc1ccc(C)c(SCC(=O)Nc2cccc(S(=O)(=O)NC3=NCCCCC3)c2)c1	-26.1%
N#C/C(C(=O)N1CCCCC1)=C1\Nc2ccccc2S1	-14.9%
CCOc1ccc(NC(=O)c2cc(SC)ccc2Cl)cc1	-2.8%
Clc1ccccc1-c1nc(-c2ccccc2)n[nH]1	25.1µM*
COc1cccc(/C=C/C(=O)OCC(=O)c2c[nH]c3ccccc23)c1OC	-10.3%
CC(C)(C)NS(=O)(=O)c1ccc(CCC(=O)Nc2cc(Cl)ccc2Oc2ccccc2)cc1	-12.6%
COc1ccccc1-n1c(CNC(=O)c2ccco2)nnc1SCC(=O)Nc1ccc(F)cc1	-13.7%
CCCCC(SCC(=O)Nc1ccccc1)C(=O)O (stereo not drawn)	-7.6%
CC1=C(C#N)C(C(F)(F)F)(C(F)(F)F)N=C(c2ccco2)N1	-2.9%
COc1cc(S(=O)(=O)N(Cc2cccnc2)Cc2ccco2)ccc1-n1cnnn1	-4.0%

New compounds follow:
structure	HPGD inh
O=C(Nc1ccccc1C(=O)O)c1ccc2ccccc2n1	?
O=Cc1ccc2oc3nc4n(c(=O)c3c(=O)c2c1)CCCS4	?
CCCCCC(=O)Nc1nc(C)c(-c2csc(Nc3ccc(Cl)cc3)n2)s1	-22.9%
O=C(O)CC(NC(=O)OCc1ccccc1)c1ccccc1 (stereo not drawn)	-4.0%
O=C(Cc1ccccc1)N(c1ccc(F)cc1)C1C=CS(=O)(=O)C1 (stereo not drawn)	-1.7%
CCCCNC(=S)Nc1ccc2nc3n(c(=O)c2c1)CCCCC3	14.1µM*
O=c1cc2c(nn1Cc1ccccc1Cl)-c1ccccc1CC2	-8.4%

2 entries from above, field by field.
> CCCCNC(=S)Nc1ccc2nc3n(c(=O)c2c1)CCCCC3
  HPGD inh: 14.1µM*
> O=Cc1ccc2oc3nc4n(c(=O)c3c(=O)c2c1)CCCS4
  HPGD inh: ?

Screening results from PubChem.
